Mtb betalactam: beta-lactam sensitization of Mtb H37Rv, H37Rv; M. tuberculosis H37Rv growth with meropenem, percent inhibition; hits of this screen are not shown here; hit rate 0.27% among 330,000; inhibition, % at 25 µM;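 active = about 74% or more and at least 40 points above the plate without the antibiotic, then above 30% in a dose series; inconclusive = first-round hits that could not be retested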;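 note: growth measured after seven days incubation then overnight dye step; 0% = bacteria only wells and 100% = bacteria with antibiotic; twin plates without the antibiotic show which effects depend on it; some results filed as inactive read as strong as hits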
* marks the source's active call; other numbers are inactive results; ? = inconclusive. The list is partial; the hit share may differ from the screen's.

| structure | Mtb betalactam |
| --- | --- |
| CC(=O)NCCc1ccc(S(=O)(=O)Nc2ccc(NC(=O)c3ccc(F)cc3)cc2)cc1 | -8.2 |
| Cc1ccc(CN2CC(C(=O)NC(c3nc4ccccc4[nH]3)C(C)C)CC2=O)cc1 (stereo not drawn) | -1.3 |
| O=C(O)c1ccc(NCc2cccnc2)c([N+](=O)[O-])c1 | -7.8 |
| O=S(=O)(c1cccs1)N1CCN(CCOc2ccc(Cl)cc2)CC1 | 13.8 |
| CC(Sc1nnc(-c2cccnc2)o1)C(=O)NC1CCCC1 (stereo not drawn) | -6.3 |
| Cc1ccc(S(=O)(=O)Nc2ccccc2N2CCCCC2)cc1 | 4.1 |
| COc1cccc(NC(=O)COC(=O)CC2CC3CCC2C3)c1 (stereo not drawn) | 1.2 |
| COc1ccc(C2=Nn3c(nnc3-c3ccccc3OC)SC2)cc1OC1CCOC1 (stereo not drawn) | -2.8 |
| COC(=O)C1=C(c2cccc(Cl)c2)C[C@@H]2CC[C@H]1N2C(=O)NCC1CC1 | -6.8 |
| Cc1ccccc1OCC(=O)Nc1cc(S(=O)(=O)N2CCOCC2)ccc1N1CCCC1 | -3.5 |
| CCc1ccc(N=C2NC(=O)/C(=C/c3cc(OC)c(OC)c(OC)c3)S2)cc1 | 1.6 |
| COC(=O)C1=C(c2ccc(Cl)c(C(F)(F)F)c2)C[C@@H]2CC[C@H]1N2C(=O)NCc1cc(C)oc1C(F)(F)F | -9.7 |
| Cc1ccc(C(=O)c2ccccc2C(=O)OCC(=O)N2C(C)CCCC2C)cc1 (stereo not drawn) | 6.7 |
| O=C(CSc1nnnn1C1CC1)Nc1cc(S(=O)(=O)N2CCCC2)ccc1Cl | -1.3 |
| CCOC(=O)c1sc2nc(C)nc(SC(C)C(=O)NC3CC3)c2c1C (stereo not drawn) | ? |
| C[C@H](CO)N1C[C@H](C)[C@@H](CN(C)C(=O)NC2CCCCC2)Oc2c(NS(=O)(=O)c3cn(C)cn3)cccc2C1=O | 2.5 |
| Cn1cc(C(=O)OCC(=O)Nc2ccccc2)c2ccccc21 | -6.5 |
| O=C(OCC(=O)N1CCN(C(=O)c2ccco2)CC1)c1cc(F)c(F)cc1Cl | 33.4 |
| Cc1ccc2c(c1)[C@H]1[C@H](CO2)[C@H](c2ccccc2)[C@]2(C)C(=O)Nc3cc(F)ccc3C(=O)N12 | 15.3 |
| COCCN(CC(=O)Nc1cccc(C)c1C)C(=O)c1ccc2ccccc2n1 | 2.2 |
| CCn1c(SCC(=O)Nc2ccc3c(c2)OCO3)nnc1C1CC1 | 7.5 |
| O=C(N/N=C/c1ccccc1Br)c1cccc(S(=O)(=O)N2CCOCC2)c1 | 2.3 |
| CCOC(=O)[C@H]1[C@H]2COc3ccccc3[C@@H]2N2C(=O)c3c(C)cc(C)cc3NC(=O)[C@@]12C | 79.7 |
| C[C@H](CO)N1C[C@H](C)[C@@H](CN(C)C(=O)Nc2ccccc2)Oc2ccc(NC(=O)Nc3ccc4c(c3)OCO4)cc2C1=O | -7.0 |
| CON(C)S(=O)(=O)NC(=O)C1=C(N2CCCC2)COC1=O | -3.6 |
| O=C(C[C@@H]1C/C=C\CCC(=O)OC[C@@H]2CCCN2C1=O)N[C@H](CO)Cc1ccccc1 | 9.8 |
| CC(=O)OC[C@H]1O[C@@H](Oc2cc(O)cc3oc(-c4ccc(O)cc4)cc(=O)c23)[C@H](O[C@@H]2O[C@@H](C)[C@H](O)[C@@H](O)[C@H]2O)[C@@H](O)[C@@H]1O | 10.0 |
| CCOc1cc(N2CCOCC2)c(OCC)cc1NC(=O)COC(=O)c1ccc(Cl)cc1N | 2.2 |
| O=C(O)c1ccc(C(=O)Nc2ccc(F)cc2)cc1 | 1.9 |
| COc1cccc(NC(=O)CN(C)C(=O)c2sc3cc(Cl)ccc3c2Cl)c1 | 4.5 |
| O=C(CCCSc1ccc(Cl)cc1)Nc1cc(S(=O)(=O)N2CCOCC2)ccc1O | 12.7 |
| CC(=NNC(=O)c1cc(C)oc1C)c1ccc(Br)s1 | 0.7 |
| COCCOc1cc(NCc2ccccc2)c2ncn(C(C)C)c2c1 | -3.8 |
| COc1ccc(NS(=O)(=O)c2cc(C(=O)N3CCCCCC3)ccc2C)cc1 | -2.0 |
| CCC(=O)Nc1ccc(C(=O)CN2C(=O)NC3(CCOc4ccccc43)C2=O)cc1 (stereo not drawn) | -7.8 |
| C=C(NC(C)=O)c1c(F)cccc1F | 4.0 |
| CN(C(=O)CN1C(=O)c2cccc(N)c2C1=O)C1CCCCC1 | -7.3 |
| Cn1c(SCC(=O)NNC(=O)c2ccccc2)nnc1C(F)(F)F | -3.7 |
| O=C(COC(=O)c1cccc(OC(F)F)c1)Nc1cccc(S(=O)(=O)N2CCCC2)c1 | -9.1 |
| CCN(CC)S(=O)(=O)c1cc(NC(=O)c2ccc3c(c2)NC(=O)C(C)S3)ccc1C (stereo not drawn) | 4.8 |
| CCCCn1c(N)c(N(CC)C(=O)c2cccc(OCc3ccccc3)c2)c(=O)[nH]c1=O | -6.1 |
| Cc1nc(NCC(c2ccccc2)N(C)C)c2c(C)c(C)sc2n1 (stereo not drawn) | 2.4 |
| O=C(Cn1c(=O)cnc2ccccc21)Nc1cccc(S(=O)(=O)N2CCCCC2)c1 | 2.1 |
| CC12CCC(C1)C(C)(C)C2NS(=O)(=O)c1ccc(F)cc1 (stereo not drawn) | 6.8 |
| O=C(COc1ccccc1Cl)Nc1ccc(NC(=O)c2ccco2)cc1 | 1.6 |
| COc1ccc2c(c1)CCCC21NC(=O)N(CC(=O)c2cc(F)ccc2F)C1=O (stereo not drawn) | 59.1 |
| CC1Cc2ccccc2N1C(=O)CN(C)CC(=O)Nc1cccc(F)c1 (stereo not drawn) | -10.7 |
| Cc1ccc(NC(=O)COc2ccccc2C#N)cc1S(=O)(=O)N1CCCCCC1 | -8.3 |
| NS(=O)(=O)c1cccc(NC(=O)COC(=O)c2ccccc2SCC(=O)N2CCCC2)c1 | -6.6 |
| COc1ccccc1NS(=O)(=O)c1cccc(C(=O)NNC(=O)C(C)NC(=O)c2ccco2)c1 (stereo not drawn) | -5.8 |
| CC1CC(=O)Nc2ccccc2N1C(=O)COc1ccc2cc(Br)ccc2c1 (stereo not drawn) | 37.8 |
| O=C(CN(C(=O)CCC(=O)Nc1nccs1)c1ccccc1F)NCc1ccccc1 | -5.3 |
| COc1cc(N)c(Cl)cc1C(=O)OCC(=O)NCC1CCCO1 (stereo not drawn) | 1.0 |
| COc1ccc(CCNC(=O)C2CCN(C(=O)c3cccc(Cl)c3)CC2)cc1OC | 1.1 |
| NCCCC[C@@H](C(=O)N1CCNCC1)n1cc(CN)nn1 | -5.4 |
| Cc1cccc(NC(=O)c2nc[nH]c2C(=O)NCCCCCCNC(=O)c2[nH]cnc2C(=O)Nc2cccc(C)c2)c1 | 12.3 |
| COc1ccc(S(=O)(=O)N(C)C[C@H]2Oc3ccc(NC(=O)CCC(F)(F)F)cc3C(=O)N([C@H](C)CO)C[C@@H]2C)cc1 | 2.5 |
| O=c1ccc2ccc(O[C@@H]3O[C@H](CO)[C@@H](O)[C@H](O)[C@H]3O)c(O)c2o1 | -1.6 |
| Cc1cccc(-c2nc(CC(=O)Nc3cccc(S(=O)(=O)NC4=NCCC4)c3)cs2)c1 | -7.3 |
| CCN(C(=O)c1cc([N+](=O)[O-])ccc1NCc1cccnc1)c1ccccc1 | -5.3 |

Carrying on:
| structure | Mtb betalactam |
| --- | --- |
| Cn1nc(C(=O)NNC(=O)c2cccc(Cl)c2)ccc1=O | 2.1 |
| Cc1noc(C)c1C(=O)OCC(=O)Nc1ncc(C(F)(F)F)cc1Cl | 6.0 |
| N#CC(C#N)=Cc1ccc(O)c(O)c1 | 4.1 |
| O=C(NCc1ccc(F)cc1)c1cc2c(cc1Cl)N1CCCCCC1=NS2(=O)=O | 0.9 |
| CCC(C)c1ccc(NC(=O)C2=CC=CN3CCS(=O)(=O)N=C23)cc1 (stereo not drawn) | -5.6 |
| CCC(=O)NC(c1ccco1)c1cc(Cl)c2cccnc2c1OC (stereo not drawn) | -5.9 |
| Cc1ccc(C(=O)OCC(=O)N2c3ccccc3NC(=O)C2(C)C)cc1S(=O)(=O)N1CCCCC1 | -7.8 |
| CC(NC(=O)c1ccccc1)C(=O)OCC(=O)c1c(N)n(C)c(=O)n(C)c1=O (stereo not drawn) | -3.3 |
| Cc1ccc(C)c(OCC(=O)NCC(C)(C)N2CCOCC2)c1 | -1.4 |
| CC1Cc2ccccc2N1S(=O)(=O)c1cccc(C(=O)NCc2ccco2)c1 (stereo not drawn) | -5.5 |
| COc1ccc(NC(=O)CC2(CC(=O)N3CCOCC3)CCCC2)cc1Cl | -1.8 |
| COc1ccc(NC(=O)Cn2ccc(C(F)(F)F)n2)cc1S(=O)(=O)N1CCOCC1 | -10.8 |
| O=C(Nc1nnc(C2CC2)s1)c1ccc(Cl)nc1 | 1.2 |
| O=C(O)c1ccc(-c2noc(-c3cccc(Cl)c3)n2)cc1 | -1.1 |
| O=C(COC(=O)c1ccc[nH]c1=O)NCC12CC3CC(CC(C3)C1)C2 | -0.5 |
| COC(=O)CN1C(=O)[C@H]2[C@@H](/C=C/c3ccccc3)N3C(=O)CN(Cc4ccc(-c5ccccc5)cc4)C(=O)[C@@]3(C)[C@H]2C1=O | 4.4 |
| COc1cccc(NC(=O)CN(C)C(=O)CNC(=O)c2sc3ccccc3c2Cl)c1 | 2.9 |
| COC(=O)c1cc(C(=O)OCC(=O)N2CCCCC2)cc([N+](=O)[O-])c1 | 0.6 |
| CC(C)CC1(C)NC(=O)N(CC(=O)Nc2ccccc2Br)C1=O (stereo not drawn) | -0.3 |
| Cc1ccc(C(=O)NCC(=O)OCC(=O)Nc2ccc3[nH]c(=O)[nH]c3c2)cc1 | -4.6 |
| CCOc1ccc(NC(=O)c2cccc3ccccc23)cc1 | 1.3 |
| CC1CCCCN1C(=O)CSc1nnc2ccccn12 (stereo not drawn) | 1.1 |
| CN(c1ccccc1)S(=O)(=O)c1cccc(NC(=O)CSc2nccc(=O)[nH]2)c1 | -1.4 |
| O=C(CN(C(=O)c1csnn1)c1ccc(F)c(Cl)c1)NCc1ccc2c(c1)OCO2 | 0.1 |
| CCc1cc2c(SC(C)C(=O)NC3CCCC3)ncnc2s1 (stereo not drawn) | 65.1 |
| COc1ccccc1NS(=O)(=O)c1cc(NC(=O)CCNC(C)=O)ccc1N1CCCCC1 | 2.2 |
| CN(C(=O)CSc1nnc(-c2ccc(Cl)cc2)n1C)C1CCS(=O)(=O)C1 (stereo not drawn) | 4.6 |
| COc1cccc(NC(=O)CN(C)C(=O)COc2ccccc2Cc2ccccc2)c1 | -3.2 |
| Cc1ccccc1N(C(=O)CCC(=O)Nc1ccccn1)C(C(=O)NC(C)C)c1ccc(F)cc1 (stereo not drawn) | 0.1 |
| CCCCn1c(N)c(N(C)C(=O)c2cn(-c3ccccc3)nc2-c2ccccc2)c(=O)[nH]c1=O | -4.1 |
| CS(=O)(=O)N1CCCC(C(=O)Nc2ccc(F)c(F)c2)C1 (stereo not drawn) | -5.5 |
| CN1CCC(N(C)S(=O)(=O)c2ccc(NC(=O)c3cccc(C#N)c3)cc2)CC1 | 5.1 |
| COc1ccc(C(=O)NCC2COc3ccccc3O2)cc1S(=O)(=O)N1CCOCC1 (stereo not drawn) | -3.4 |
| O=C(COC(=O)Cn1ccc(=O)[nH]c1=O)Nc1ccc(F)cc1 | -9.0 |
| CC(C)(C)[C@H]1COC(=O)CC/C=C\C[C@@H](CC(=O)N(CCO)Cc2ccccc2)C(=O)N1 | 0.5 |
| O=C(NN=C(c1ccccc1)c1ccccc1)C(CCl)C1CCCCC1 (stereo not drawn) | -4.6 |
| CNc1nc(-c2ccc(S(=O)(=O)N3CCCCC3)cc2)cs1 | 3.9 |
| O=C(Nc1ccc(N2CCOCC2)cc1)c1ccc2ncsc2c1 | 0.8 |
| CC[C@@]1(C(=O)OC)N[C@H](CN(C)C(=O)Nc2ccccc2)[C@@H]2C(=O)N(C)C(=O)[C@@H]21 | -5.7 |
| CN(C1CCCCC1)S(=O)(=O)c1ccc(SCC(=O)NC(C)(C)C)nc1 | -5.7 |
| COc1ccc(C(=O)NCC(=O)Nc2cccc(S(=O)(=O)N3CCCC3)c2)cc1 | 1.2 |
| CCOc1ccccc1OCC(=O)Nc1c(C)n(C)n(-c2ccccc2)c1=O | 4.7 |
| C[C@H](CO)N1C[C@H](C)[C@@H](CN(C)C(=O)NC2CCCCC2)Oc2ccc(NS(C)(=O)=O)cc2C1=O | -0.1 |
| Cc1ccc(NC(=O)CN(C)C(C)C(=O)N2CC(C)CC(C)C2)cc1 (stereo not drawn) | -3.2 |
| O=C1ON=C(c2ccc(Cl)c([N+](=O)[O-])c2)/C1=C/c1cccc([N+](=O)[O-])c1O | -3.3 |
| CCSc1nc2sc3c(c2c(=O)n1-c1ccccc1)CCN(C)C3 | 14.3 |
| COc1ccc(NC(=O)CN(C)C(=O)CCCc2nc3ccccc3c(=O)[nH]2)cc1 | -0.2 |
| O=C(CCNC(=O)c1ccc(Br)cc1)NCC(c1ccco1)N1CCCCC1 (stereo not drawn) | -3.4 |
| COc1ccc(OCC(=O)OCC(=O)NCC2CCCCC2)cc1 | -2.8 |
| Cc1ccc(C(=O)CCC(=O)OCC(=O)NNC(=O)c2ccc([N+](=O)[O-])cc2)cc1 | 1.2 |
| CCN(C(=O)COc1cccc(-n2cnnn2)c1)C1CCS(=O)(=O)C1 (stereo not drawn) | -7.7 |
| COc1ccc(N2CCN(C(=O)C3Cc4ccccc4CN3C(=O)c3ccco3)CC2)cc1 (stereo not drawn) | 0.8 |
| CCOC(=O)[C@H]1[C@H]2COc3ccc(Br)cc3[C@@H]2N2C(=O)CN(Cc3ccc(Cl)cc3)C(=O)[C@@]12C | -3.0 |

Screens from PubChem BioAssay.
